Assay outcomes deposited in PubChem by National Center for Advancing Translational Sciences (NCATS).
Cruzain noTriton: inhibitors of Trypanosoma cruzi cruzain without detergent | Potency, µM, inactives show max response, negative = inhibition, actives largely listed as inhibitors | purified cruzain, Z-FR-AMC fluorescence, no detergent | actives 2.3% (n = 200,000) | AID 1476;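 also: plate controls were enzyme without inhibitor for no effect and buffer without enzyme for full effect; nearly all actives have a fitted effect of over 40% in size; top concentration of the series not given in the record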
Target sequence (P25779 123-467 limits assumed): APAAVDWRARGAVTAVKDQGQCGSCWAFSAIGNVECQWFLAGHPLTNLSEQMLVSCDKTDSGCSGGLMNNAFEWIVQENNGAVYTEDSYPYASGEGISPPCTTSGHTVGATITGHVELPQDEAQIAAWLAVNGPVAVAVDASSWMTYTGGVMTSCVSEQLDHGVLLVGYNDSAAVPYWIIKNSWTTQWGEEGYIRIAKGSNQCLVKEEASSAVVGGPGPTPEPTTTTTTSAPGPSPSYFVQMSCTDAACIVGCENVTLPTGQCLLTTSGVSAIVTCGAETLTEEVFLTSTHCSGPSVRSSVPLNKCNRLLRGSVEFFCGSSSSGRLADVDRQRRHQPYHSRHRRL
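Detergent-free condition (0.00005% Triton X-100) in acetate buffer pH 5.5 with DTT. 1.5 nM enzyme and compound were pre-mixed 15 min, then 2 uM Z-FR-AMC substrate added; reaction progress from fluorescence change between first and third reads (60 s).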
RE007 growth inh: less growth of the S. pombe RE007 Vpr strain; S. pombe RE007 Vpr strain, BacTiter-Glo ATP luminescence, 24 h; control for the full effect not named in the record; Potency, µM (doses to about 92.2 µM), for the others: top-dose activity change, negative = less growth; actives 0.21% (n = 360,000); AID 651644; active = well fitted falling curve with a large enough effect; inconclusive = small, poorly fitted or top-dose-only effect; inactive = no such curve, though single readings can be large or run the other way;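 also: % is scaled to controls: 0 for no effect and ±100 for the full control effect; nearly all actives have a fitted effect of over 50% in size; the assay follows cell death caused by Vpr and the record does not say whether a fall means rescue or toxicity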
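Fission yeast RE007 carrying one integrated HIV-1 vpr copy, seeded at OD 0.01 in PMG+AL medium with 23 nL pinned compound. Grown 24 h at 30 degrees; viability read by BacTiter-Glo luminescence after 5 min.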
Cruzain inh Det: blocks cruzain activity in presence of Triton detergent. purified cruzain, Z-FR-AMC fluorescence, 0.01% Triton. Potency, µM, for inactives: max response, negative = inhibition, usual class: inhibitors. actives 0.43% (n = 200,000). AID 1478;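 also: plate controls were neutral wells for no effect and buffer without enzyme for full effect; nearly all actives have a fitted effect of over 40% in size; top concentration of the series not given in the record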
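Cysteine protease activity tested under reducing, mildly acidic conditions (100 mM sodium acetate pH 5.5, 5 mM DTT) plus 0.01% Triton X-100. Cruzain 1.5 nM; substrate Z-FR-AMC 2 uM; 15 min compound preincubation at room temperature.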
Lassa entry inh: blocks Lassa virus binding to or entry into cells | Lassa virus pseudotype entry inhibition, cell reporter; control for the full effect not named in the record | Potency, µM (highest dose often 37.9 µM), without a hit: at the top dose activity change, negative = inhibition, actives largely listed as inhibitors | actives 1.2% (n = 300,000) | AID 540256; active means well fitted inhibition curve with a large enough effect; inconclusive means small, poorly fitted or top-dose-only effect, or effect the other way; inactive means flat fitted curve, though single readings scatter; tested in HEK293 cells; also: % is scaled to controls: 0 for no effect and ±100 for the full control effect; nearly all actives have a fitted effect of over 50% in size; luciferase read-out
SARS PLpro yeast: inhibitors of SARS-CoV papain-like protease in yeast. AID 485353. actives 0.19% (n = 330,000). Potency, µM (highest dose often 32.9 µM), without a hit: at the highest dose activity, positive = growth rescue. S. cerevisiae expressing SARS-CoV PLpro, growth rescue; control for the full effect not named in the record; active means well fitted rising curve with a large enough effect; inconclusive means small, poorly fitted or top-dose-only effect; inactive means no such curve, though single readings can be large or run the other way; also: 0% is about no effect; nearly all actives have a fitted effect of over 55% in size; growth read by luminescence after 48 h
Marburg entry inh: inhibitors of Marburg virus binding or cell entry | Potency, µM (highest dose often 37.8 µM), inactives show at the highest dose activity change, negative = inhibition, hits mostly inhibitors | actives 1.8% (n = 300,000) | Marburg virus pseudotyped entry inhibition, cell reporter; control for the full effect not named in the record; about a third of the inactives were read at about 46 µM; active = well fitted inhibition curve with a large enough effect; inconclusive = small, poorly fitted or top-dose-only effect, or effect the other way; inactive = flat fitted curve, though single readings scatter; tested in HEK293 cells; about a fifth of its hits are not listed in these tables; also: % is scaled to controls: 0 for no effect and ±100 for the full control effect; luciferase read-out
2A StopGo: lowers the luciferase signal of an FMDV 2A StopGo reporter | human cells with a luciferase reporter of 2A StopGo recoding; control for the full effect not named in the record | Potency, µM (top dose mostly 57.9 µM), for the others: at the highest dose signal change, negative = less light | actives 1.2% (n = 410,000); active = well fitted falling curve with a large enough effect; inconclusive = small, poorly fitted or top-dose-only effect; inactive = no such curve, though single readings can be large or run the other way; tested in HEK293T cells; also: % is scaled to controls: 0 for no effect and ±100 for the full control effect; nearly all actives have a fitted effect of over 45% in size; luciferase light after 4 h
NS1 inh: blocks influenza NS1 protein function; Potency, µM (series often up to 46.1 µM), for the others: at the top dose activity, positive = more growth; actives 0.4% (n = 270,000); S. cerevisiae slowed by influenza A NS1, growth recovery by OD600; AID 2326; active means well fitted rising curve with a large enough effect; inconclusive means small, poorly fitted or top-dose-only effect; inactive means no such curve, though single readings can be large or run the other way; also: nearly all actives have a fitted effect of over 50% in size
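Recovery from NS1-induced slow growth read by OD600 in budding yeast switched to galactose assay medium (pH 6.0, -URA) at 1:100 dilution. Compound 23 nl per well; the matching strain lacking NS1 serves as control.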
* marks the source's active call; other numbers are inactive results; ? = inconclusive; / = not tested or not shown; & = joins results of further samples; [ ] = dose if it differs, or a comment. Unless noted, calls follow the shape of the dose curve; as a rule, active = well fitted curve in the direction sought with a large enough effect; inconclusive = small, poorly fitted or top-dose-only effect, or another doubt; inactive = no such curve, though single readings can be large; an effect the other way counts as inactive or inconclusive. Potency is read from the fitted curve at half-maximal effect. No enrichment for hits; about 4.5% have a hit in one of these screens.

SMILES	Cruzain noTriton	RE007 growth inh	Cruzain inh Det	Lassa entry inh	SARS PLpro yeast	Marburg entry inh	2A StopGo	NS1 inh
N#Cc1nc(-c2ccc(Cl)cc2)oc1NCc1cccc2c1OCO2	?	-5%	0.1%	-3%	/	8%	41%[activator]	-23%
O=C(c1ccccc1)c1nn(-c2cccc(Cl)c2)ccc1=O	/	9%	/	-15%[46.1 µM]	-4%	-3%[46.1 µM]	6%	-3%
ClC1=C(Cl)C(Cl)=C(Cl)C1=C/C=C/c1ccccc1	/	13%	/	/	0%	/	?	6%
Cc1cc(N2CC(C)OC(C)C2)nc(C(C)C)n1 (centres undefined)	/	5%	/	-22%	1%	-2%[46.1 µM]	-7%	/
COc1ccc(-n2c(-c3ccc(C)cc3)n[nH]c2=S)cc1	3%	22%	-3.0%	-3%	14%	9%	-12%	?
Cc1ccc(C)c(OCC(=O)NNC(=O)CCN2CCN(c3ccccc3)CC2)c1	/	5%	/	-29%	-2%	-18%	?	/
CCCC(=O)N1c2ccccc2NC2=C(C(=O)CCC2)C1c1ccc(F)cc1 (centres undefined)	-5%	5%	-4.9%	5%	6%	-15%	/	-13%
Cc1ccccc1CNC(=O)CCc1cn(Cc2ccccc2C)c2ccccc12	1%	/	-1.8%	6%[46.1 µM]	/	/	2%	/
S=C(NCc1cccs1)Nc1ccc(Br)cc1Cl	/	3%	/	/	22%	/	97%[activator]	-9%
O=C(OCc1ccc([N+](=O)[O-])cc1)c1cc(S(=O)(=O)N2CCCCC2)ccc1N1CCOCC1	/	-20%	/	?	3%	?	-29%	/
CCN(CC)C(=O)Cn1cc(C(=O)C(=O)NCCCN2CCOCC2)c2ccccc21	/	-18%	/	-6%	3%	-1%	-17%	0%
Cc1cc(C)cc(NC(=O)C2CCN(S(=O)(=O)c3cccc(-c4noc(C)n4)c3)CC2)c1	6%	/	1.3%	?	/	/	-58%	/
CCN(CC)Cc1c(C(=O)N/N=C/c2cccnc2)nnn1-c1nonc1N	/	-1%	/	23%[46.1 µM]	1%	5%[46.1 µM]	13%	4%
CCn1cc([N+](=O)[O-])c(C(=O)Nc2ccn(C34CC5CC(CC(C5)C3)C4)n2)n1	8%	33%	-1.9%	2%	-9%	?	-22%	-19%
COC(=O)c1sc(NC(=O)c2cnccn2)c(C(=O)OC)c1C	/	11%	/	30%	/	-1%	3%	/
O=C(Nc1ccccc1)Nc1cccc(Cl)c1	-2%	-9%	-4.8%	1%	-3%[6.58 µM]	-6%	0%	-174%
CCSc1nc2c(c(=O)n1Cc1ccccc1)SC(C)C2 (centres undefined)	-13%	-9%	-1.4%	1%	-12%	-18%	/	-55%
CC(OC(=O)Cn1cnc2c1c(=O)n(C)c(=O)n2C)C(=O)Nc1ccc(Cl)cc1 (centres undefined)	/	-1%	/	9%	-1%	-4%[46.1 µM]	-22%	/
Cc1cccc(C)c1OCC(=O)N(Cc1ccccc1F)C1CCS(=O)(=O)C1 (centres undefined)	0%	/	-6.0%	8%[46.1 µM]	/	27%[46.1 µM]	-18%	/
CCOC(=O)c1c(NS(=O)(=O)Cc2ccccc2)sc2c1CCCC2	-6%	-2%	-6.8%	10%	-2%	6%	-7%	-4%
Cc1cccc(CNCc2ccccc2)c1	-6%	7%	1.0%	6%	-15%	2%	-7%	-2%
Cn1ncc2c(Nc3ccccc3Cl)nc(Nc3ccccc3Cl)nc21	/	-11%	/	-22%[46.1 µM]	-2%	?	-16%	-2%
CSc1cccc(NC(=O)CCCn2c(=O)c3cccn3c3cccnc32)c1	/	1%	/	/	?	/	-20%	9%
CC(C)[C@H](NS(=O)(=O)c1ccccc1)C(=O)OCC(=O)N1N=C(c2ccc(Cl)cc2)CC1c1ccco1 (some centres undefined)	?	-6%	-11%	?	-7%	?	-19%	?
COc1cccc(NC(=O)CN(C)C(=O)c2ccc(NC(=O)CC3SC(N4CCCCC4)=NC3=O)cc2)c1 (centres undefined)	/	-11%	/	-2%	4%	13%	-2%	/
CCOC(=O)C1CCN(C(c2ccc(SC)cc2)c2c(O)cc(C)n(Cc3ccco3)c2=O)CC1 (centres undefined)	?	/	0.6%	-28%[46.1 µM]	/	/	-28%	/
CCN1CCN(CC(=O)Nc2ccc3c(c2)OCCO3)C(=O)C1=O	-1%	12%	1.2%	/	-1%	/	-28%	?
O=C(O)Cc1c(-c2ccccc2Cl)c2cc(Br)ccc2[nH]c1=O	/	6%	/	/	0%	/	-9%	12%
CCN1C(=O)C2(Nc3ccccc3-c3nc4ccccc4n32)c2cc(OC)ccc21 (centres undefined)	0%	22%	-3.2%	-18%	9%	?	-28%	6%
Cc1nn(CCCC(=O)NCc2cccc(Cl)c2)c(=O)c2c1sc1ccccc12	?	/	-16%	20%[46.1 µM]	/	-2%[46.1 µM]	-15%	/
COc1ccccc1NC(=O)CSCC(N)=O	2%	0%	2.9%	-6%	0%	?	7%	?
COc1ccc(C=O)cc1Oc1nc(Cl)ncc1F	/	12%	/	14%	-1%	7%[46.1 µM]	0%	2%
Cc1nnc(SCC(=O)NC(=O)Nc2ccc3c(c2)OCCO3)s1	/	-6%	/	9%	0%	14%[46.1 µM]	44%[activator]	/
COc1ccc(NC(=O)c2c(NC(=O)CCC(=O)O)sc(-c3ccccc3)c2C)cc1	/	7%	/	/	1%	/	0%	-7%
O=S(=O)(NCc1ccco1)c1cccc(S(=O)(=O)N2CCCCC2)c1	-4%	8%	1.7%	19%	-2%	?	15%	3%
CCCCCCNC(=O)c1ccc(Br)o1	4%&-7%	1%	-1.2%&-0.8%	2%	4%	-2%	20%	-29%
CCOc1ccc(CNS(=O)(=O)c2cccs2)cc1OCC	/	-5%	/	/	-1%	/	-3%	8%
CC(C)(C)c1ccc(OCC(=O)NNC(=O)CCc2ccccc2)cc1	1%	-14%	0.0%	?	-6%	?	-1%	-9%
CC(=O)Nc1ccc(Nc2nnc(-c3ccc(C)c(S(=O)(=O)NCC4CCCO4)c3)c3ccccc23)cc1 (centres undefined)	/	1%	/	/	1%	/	7%	-34%
CCc1ccc(Sc2cc(C(=O)O)c3ccccc3n2)cc1	6%	/	-1.9%	-29%[46.1 µM]	/	/	14%	/
CCCCc1nnc(NC(=O)CN2C(=O)C3CCCCC3C2=O)s1 (centres undefined)	/	-5%	/	3%	-3%	16%	-25%	/
O=C(c1ccc([N+](=O)[O-])cc1)N1CCN=C1SCc1ccccc1	/	-5%	/	?	-4%	?	?	/
COc1cc(N=CC2=C(O)c3ccccc3C2=O)cc(OC)c1	-3%	0%	-4.8%	21%	2%	?	39%[activator]	4%
CCOc1cccc(-c2c(C(=O)N/N=C/c3ccsc3)nnn2-c2nonc2N)c1	/	0%	/	25%[46.1 µM]	0%	26%[46.1 µM]	-1%	-1%
Cc1cccc(-c2nc(C#N)c(NCc3ccco3)o2)c1	/	7%	/	/	-4%	/	82%[activator]	-9%
CCOC(=O)N1CCN(C(=O)CCCCCn2c(=S)[nH]c3cc4c(cc3c2=O)OCO4)CC1	/	-3%	/	-10%	2%	?	-9%	/
O=C(COC(=O)c1ccccc1C(=O)c1ccc(Cl)cc1)NCC1CCCO1 (centres undefined)	/	-21%	/	-6%	2%	?	-3%	/
CN(CC(=O)Nc1ccccc1Br)CC(=O)NC(c1ccccc1)c1ccccc1	/	-6%	/	?	2%	?	?	/
CCOC(=O)C1=NOC2COC3(CCN(c4ncccn4)CC3)OCC12 (centres undefined)	/	5%	/	0%[46.1 µM]	1%	4%	-8%	/
Cc1ccc(CSc2nnc(-n3c(=O)c(C#N)cc4c(=O)n5cc(C)ccc5nc43)s2)cc1	0%	/	1.0%	24%[46.1 µM]	/	-29%[46.1 µM]	5%	/

The list continues.
SMILES	Cruzain noTriton	RE007 growth inh	Cruzain inh Det	Lassa entry inh	SARS PLpro yeast	Marburg entry inh	2A StopGo	NS1 inh
O=c1oc2ccc3ccccc3c2cc1-c1nnc(Nc2cccc(F)c2)s1	11%	/	0.1%	-3%[46.1 µM]	/	/	-19%	/
O=C(COC(=O)/C=C/c1ccc2c(c1)OCO2)NC1CCS(=O)(=O)C1 (centres undefined)	/	9%	/	/	1%	/	-19%	-6%
Cc1cccc(NCc2nc(-c3ccccc3)no2)c1	9%	-12%	-6.3%	/	-16%	/	25%	-62%
CCOC(=O)C1=C(C)NC(=O)NC1C1CC=CCC1 (centres undefined)	1%	-2%	-0.1%	0%	0%	-5%	-13%	3%
CC(CCc1ccccc1)NCc1ccc(Cl)cc1Cl (centres undefined)	/	-20%	/	/	0%	/	-9%	-12%
O=C(CN1CCc2ccccc2C1)Nc1cc(S(=O)(=O)N2CCOCC2)ccc1N1CCCC1	11%	1%	-1.1%	-14%	1%	?	-16%	-2%
Cc1ccc(OCC(=O)NCc2ccco2)c([N+](=O)[O-])n1	/	-11%	/	2%	0%	6%[46.1 µM]	5%	0%
Cn1cccc1Cc1nnc(SCC(=O)Nc2ccc(Cl)cc2)n1-c1ccc(F)cc1	8%	9%	-6.2%	-11%	6%	-27%&-27%	-21%	-80%
COc1cc(/C=C/C(=O)OCC(=O)N2CC3(C)CC2CC(C)(C)C3)ccc1O (centres undefined)	12%	19%	-11%	?	-3%	-37%	?	5%
COc1ccccc1N1CCN(C(=O)c2ccccc2SCC(=O)N2CCCC2)CC1	/	0%	/	-2%	4%	-19%	-1%	/
Fc1cccc(CCN2C(=S)NC[C@@H]2Cc2ccccc2)c1	/	5%	/	/	-2%	/	-7%	-6%
CC(OC(=O)c1ccc([N+](=O)[O-])o1)C(=O)Nc1nc(-c2ccc(F)c(F)c2)cs1 (centres undefined)	/	-9%	/	-15%	1%	18%	3%	/
CCCCNS(=O)(=O)c1ccc(S(=O)(=O)N2CCC3(CC2)OCCO3)cc1	12%	4%	7.4%	-22%	-8%	-13%	11%	-1%
